Screens (PubChem BioAssay)
FGF22 binding: shifts melting point of recombinant human FGF22 | Q9HCT0 | recombinant FGF22 thermal shift, SYPRO orange fluorescence; percent of sucrose octasulfate shift, DMSO zero | calls only at 9.99 µM | hit rate 1.5% among 340,000 | AID 651658;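 active means melting point raised past a set limit in the mean and every replicate; three in four hits are not shown here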
Target sequence (Q9HCT0 whole entry, looked up): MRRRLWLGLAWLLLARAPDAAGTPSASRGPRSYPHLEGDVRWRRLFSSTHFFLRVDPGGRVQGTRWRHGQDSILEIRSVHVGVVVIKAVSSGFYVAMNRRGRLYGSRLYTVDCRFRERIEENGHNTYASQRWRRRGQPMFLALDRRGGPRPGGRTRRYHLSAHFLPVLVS
rRNA inh HTS: selective bacterial rRNA inhibition in E. coli | GFP signal change (wild-type ribosome), % (concentration not given with the values) | E. coli WT GFP vs humanized-ribosome RFP mutants, fluorescence, 24 h; hits give low values; DMSO median 0, no signal -100 | AID 720706 | hit rate 1.6% among 350,000;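 active means significant combined selectivity score with lowered wild-type GFP, culture density cut under 30%, mutant RFP and density less affected; inactive means any of these conditions unmet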; further: one replicate is shown; some compounds called inactive have numbers as strong as hits
rRNA inh HTS OD600: second read-out of rRNA inh HTS, no call of its own (marks repeat the call); OD600 change, %; measured here: OD600 growth;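 optical density of the mix in the first replicate; 0 = DMSO median and -100 = no signal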
rRNA inh HTS RFP: second read-out of rRNA inh HTS, no call of its own (marks repeat the call); RFP signal change, %; measured here: RFP humanized mutant strains;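 first replicate; 0 = DMSO median and -100 = no signal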
An asterisk follows results filed as active; i = inactive; + = active, no number.

SMILES | FGF22 binding | rRNA inh HTS | rRNA inh HTS OD600 | rRNA inh HTS RFP
C[C@H](CO)N1C[C@H](C)[C@@H](CN(C)C(=O)Nc2ccc(F)cc2)Oc2c(NC(=O)C3CCOCC3)cccc2C1=O | i | 3 | 9 | -2.2
O=C(C1CCC1)N1CCCCN2[C@@H](CO)[C@@H](c3ccc(-c4ccncc4)cc3)[C@@H]2C1 | i | 4 | 10 | -0.6
C[C@H]1CCCCO[C@@H](CN(C)C(=O)c2ccccc2)[C@@H](C)CN([C@@H](C)CO)C(=O)c2cc(NC(=O)c3ccncc3)ccc2O1 | i | -3 | -9 | -1.2
COc1ccc(NC(=O)N2CC[C@@H]3[C@H]2c2cc(Br)ccc2N(C)[C@H]3CO)cc1 | i | -6 | -25 | -3.1
COc1ccc(S(=O)(=O)N(C)C[C@H]2OCCCC[C@H](C)Oc3ccc(NS(=O)(=O)c4ccc(F)cc4)cc3C(=O)N([C@@H](C)CO)C[C@@H]2C)cc1 | i | -5 | -5 | 0.5
O=C(c1cnccn1)N1CC(=O)N2[C@@H](CO)[C@@H](c3ccc(-c4cccc(F)c4)cc3)[C@@H]2C1 | i | -3 | -1 | -1.5
O=C(NCc1cccc(F)c1)[C@H]1[C@H](CO)[C@H]2Cn3c(cccc3=O)[C@@H]1N2 | i | 3 | 6 | 0.7
O=C(Cc1cccnc1)N1CC2(C1)[C@H](c1ccccc1)[C@@H](CO)N2C(=O)C1CC1 | i | 4 | 8 | -1.6
C[C@H]1CCCCO[C@@H](CN(C)Cc2ccc3c(c2)OCO3)[C@@H](C)CN([C@@H](C)CO)C(=O)c2cc(NC(=O)Nc3ccc(C(F)(F)F)cc3)ccc2O1 | i | -3 | -10 | 1.0
CC(C)NC(=O)Nc1cccc2c1O[C@@H](CN(C)C(=O)Nc1ccc(C(F)(F)F)cc1)[C@@H](C)CN([C@H](C)CO)C2=O | i | -14 | -23 | -0.2
C[C@@H]1CN([C@H](C)CO)C(=O)c2cc(-c3cccc(C#N)c3)cnc2O[C@H]1CN(C)C(=O)C1CCC1 | i | 0 | 10 | 0.7
CCC(=O)Nc1ccc2c(c1)C(=O)N(C)[C@@H]1CC[C@@H](CC(=O)NCC3CCCCC3)O[C@H]1CO2 | i | 3 | 3 | -0.6
COc1ccc(CN(C)C[C@H]2OCCCC[C@H](C)Oc3ccc(NC(=O)Nc4ccc(C(F)(F)F)cc4)cc3C(=O)N([C@@H](C)CO)C[C@H]2C)cc1 | i | 4 | 9 | -0.4
CN(C)CC#Cc1ccc([C@@H]2[C@H]3CN(CC4CCOCC4)CCCCN3[C@H]2CO)cc1 | i | 6 | 15 | -2.4
COc1ccc(S(=O)(=O)Nc2cccc3c2O[C@@H](CN(C)C)[C@H](C)CN([C@@H](C)CO)C3=O)cc1 | i | 4 | 7 | -1.3
COCC(=O)N1CCCCN2[C@H](CO)[C@H](c3ccc(-c4ccccc4)cc3)[C@@H]2C1 | i | 4 | -2 | -0.5
O=C(C[C@@H]1CC[C@@H]2[C@H](COC[C@@H](O)CN2C(=O)C2CC2)O1)NCc1ccncc1 | i | 3 | -2 | -2.0
COc1cccc(CNC(=O)C[C@@H]2CC[C@@H](NS(=O)(=O)c3ccccc3OC)[C@@H](CO)O2)c1 | i | -1 | -1 | -3.4
COc1ccccc1S(=O)(=O)N[C@@H]1CC[C@H](CC(=O)N2CCCCC2)O[C@H]1CO | i | 2 | 7 | -4.5
C[C@H]1CN([C@@H](C)CO)C(=O)Cc2cc(NC(=O)C3CC3)ccc2O[C@H]1CN(C)S(=O)(=O)c1ccc(Cl)cc1 | i | -3 | -5 | 2.9
O=C(N[C@@H]1CC[C@@H](CCNC(=O)c2cnccn2)O[C@H]1CO)c1ccc2c(c1)OCO2 | i | -2 | 3 | -0.2
C[C@H](CO)N1C[C@H](C)[C@H](CN(C)S(=O)(=O)c2cccs2)OCCCC[C@H](C)Oc2ccc(NC(=O)CCCN(C)C)cc2C1=O | i | 1 | 10 | -0.7
O=C(CCN1CCCCC1)NCC[C@H]1CC[C@H](NC(=O)Nc2ccc(Cl)cc2)[C@H](CO)O1 | i | 2 | -5 | -0.3
CO[C@@H]1CN(C)C(=O)c2cc(NS(C)(=O)=O)ccc2OC[C@H](C)NC[C@H]1C | i | 0 | 5 | -2.6
O=C(c1ccccc1)N1CC(=O)N2[C@H](CO)[C@@H](c3ccc(C#CC4CC4)cc3)[C@@H]2C1 | i | 2 | -5 | -2.7
SMILES | FGF22 binding | rRNA inh HTS | rRNA inh HTS OD600 | rRNA inh HTS RFP
COc1cccc(NC(=O)N(C)C[C@@H]2Oc3cc(-c4ccccc4OC)ccc3S(=O)(=O)N([C@@H](C)CO)C[C@H]2C)c1 | i | 0 | -7 | 4.9
C[C@@H]1CN([C@H](C)CO)C(=O)c2cc(-c3ccccc3F)cnc2O[C@H]1CN(C)C(=O)NC1CCCC1 | i | -1 | -2 | -0.4
COc1ccccc1-c1ccc2n(c1=O)C[C@H]1[C@H](CO)[C@@H](C(=O)N3CCCCC3)N(C)[C@@H]21 | i | 3 | 8 | -0.4
C[C@H]1CN([C@@H](C)CO)C(=O)c2cc(C3=CCCC3)cnc2O[C@@H]1CN(C)C(=O)Nc1ccc(F)cc1 | i | 1 | 10 | -2.5
Cc1noc(C)c1NC(=O)Nc1ccc2c(c1)C(=O)N([C@H](C)CO)C[C@@H](C)[C@H](CN(C)CC1CCCCC1)OCCCC[C@@H](C)O2 | i | 1 | 6 | -0.8
C[C@H]1CN([C@@H](C)CO)C(=O)c2cccc(NC(=O)c3ccc(-c4nccs4)cc3)c2O[C@H]1CN(C)Cc1ccncc1 | i | -8 | -7 | -0.2
C[C@@H]1CN([C@H](C)CO)C(=O)c2cccc(NS(=O)(=O)c3ccc(Cl)cc3)c2O[C@H]1CN(C)C | i | -3 | -1 | -0.9
C[C@@H](O)C#Cc1ccc([C@@H]2[C@@H](CO)N3CCCCN(C(=O)c4ccc5c(c4)OCO5)C[C@H]23)cc1 | i | 1 | 17 | -2.7
O=C(C[C@H]1CC[C@H]2[C@@H](COC[C@@H](O)CN2S(=O)(=O)c2cccc(Cl)c2)O1)NCCCN1CCOCC1 | i | 6 | 4 | -1.2
COc1ccc(CN(C)C[C@@H]2Oc3ccc(NS(=O)(=O)c4cn(C)cn4)cc3C(=O)N([C@H](C)CO)C[C@@H]2C)cc1 | i | 1 | 10 | -0.4
COc1cccc(NC(=O)N[C@H]2CC[C@@H](CC(=O)N3CCCCC3)O[C@H]2CO)c1 | i | 1 | -2 | -1.1
CN1C(=O)c2cc(NC(=O)c3cccc(F)c3)ccc2OC[C@@H]2O[C@@H](CC(=O)Nc3ccccc3)CC[C@H]21 | i | -8 | -6 | 1.9
COc1ccc(CN(C)C[C@@H]2Oc3c(NS(=O)(=O)c4ccc(OC)cc4)cccc3C(=O)N([C@H](C)CO)C[C@H]2C)cc1 | i | 0 | 3 | 0.2
C[C@@H]1CN([C@H](C)CO)C(=O)c2cc(NS(=O)(=O)c3ccc(Cl)cc3)ccc2O[C@@H](C)CCCCO[C@@H]1CN(C)C(=O)c1ccncc1 | i | 0 | 2 | -0.3
Cc1cc(NC(=O)Cc2cn(Cc3ccccc3)c3ccccc23)ccc1Oc1cccnc1 | i | 2 | 5 | 3.7
O=C(Nc1ccc(C(F)(F)F)cc1)N[C@@H]1CC[C@@H](CC(=O)N2CCCCC2)O[C@@H]1CO | i | -1 | -4 | 0.1
COCC#Cc1ccc2c(c1)O[C@H](CN(C)C(=O)CC1CC1)[C@@H](C)CN([C@@H](C)CO)S2(=O)=O | i | 1 | 4 | -1.8
CCc1csc(N2[C@@H](C#N)[C@H](c3ccc(-c4ccc(F)cc4)cc3)[C@@H]2CO)n1 | i | -13 | -39 | 21
CNC[C@@H]1OCCCC[C@@H](C)Oc2ccc(NS(=O)(=O)c3ccc(F)cc3)cc2C(=O)N([C@@H](C)CO)C[C@H]1C | i | 3 | 7 | -2.3
O=C(NCC[C@@H]1CC[C@H](NC(=O)c2cnccn2)[C@H](CO)O1)Nc1ccc(Cl)cc1 | i | -31 | -50 | -3.0
CCS(=O)(=O)N1CC2(CN(Cc3ccccc3F)[C@@H](CO)c3[nH]c4cc(OC)ccc4c32)C1 | i | -7 | -3 | 0.0
Cc1ccc(S(=O)(=O)N[C@@H]2CC[C@H](CCNC(=O)c3ccccc3F)O[C@@H]2CO)cc1 | i | -2 | 3 | -2.7
Cc1ccccc1S(=O)(=O)NCC[C@@H]1CC[C@H](NC(=O)C2CCOCC2)[C@H](CO)O1 | i | 3 | 6 | -2.4
CC(C)NC(=O)N[C@@H]1CC[C@@H](CCNC(=O)C2CCOCC2)O[C@H]1CO | i | 5 | 4 | -1.9
COc1ccc(CNS(=O)(=O)c2cc(Br)ccc2Br)c(OC)c1 | i | -2 | -18 | 16
SMILES | FGF22 binding | rRNA inh HTS | rRNA inh HTS OD600 | rRNA inh HTS RFP
Cc1noc(C)c1NC(=O)N(C)C[C@H]1OCCCC[C@H](C)Oc2ccc(NC(=O)Nc3ccc(C(F)(F)F)cc3)cc2C(=O)N([C@H](C)CO)C[C@@H]1C | i | -1 | -3 | 0.8
CCNC(=O)C[C@@H]1CC[C@@H]2[C@@H](COc3ccc(NC(=O)c4cscn4)cc3C(=O)N2C)O1 | i | -1 | 0 | -2.9
C[C@H]1CN([C@@H](C)CO)C(=O)c2cc(NC(=O)CCC(F)(F)F)ccc2O[C@@H]1CN(C)S(=O)(=O)c1ccc(F)cc1 | i | 2 | 1 | 0.0
O=C(C[C@H]1CC[C@@H]2[C@H](COC[C@H](O)CN2C(=O)c2ccc(F)cc2)O1)NCc1cccc(F)c1 | i | -1 | -2 | -2.6
O=C(Nc1cc(Cl)cc(Cl)c1)N[C@@H]1CC[C@@H](CCNS(=O)(=O)c2cccc(F)c2)O[C@H]1CO | + | -59 | -80 | -15
O=C(C[C@@H]1CC[C@H]2[C@@H](COC[C@H](O)CN2CC2CC2)O1)NCc1ccc(Cl)cc1 | i | 5 | 8 | -1.4
NCC[C@@H]1CC[C@@H](NC(=O)C2CCCCC2)[C@@H](CO)O1 | i | 2 | 10 | -4.3
C[C@H](CO)N1C[C@H](C)[C@H](CN(C)Cc2cncnc2)Oc2cc(-c3ccncc3)ccc2S1(=O)=O | i | -2 | 1 | -2.7
Cc1ccc(S(=O)(=O)N(C)C[C@H]2OCCCC[C@@H](C)Oc3ccc(NC(=O)Nc4ccc(F)cc4)cc3C(=O)N([C@H](C)CO)C[C@H]2C)cc1 | i | 1 | 3 | 0.9
COc1ccccc1CNC(=O)C[C@H]1C=C[C@H](NC(=O)CC2CC2)[C@H](CO)O1 | i | 1 | 10 | -0.9
CCCNC(=O)N1CC[C@@H]2[C@H]1c1cc(-c3ccccc3)ccc1N(C)[C@H]2CO | i | -8 | -22 | 8.4
COc1ccc(CN(C)C[C@H]2Oc3ccc(NS(=O)(=O)c4ccc(OC)cc4)cc3C(=O)N([C@H](C)CO)C[C@@H]2C)cc1 | i | 2 | 0 | -1.1
C[C@H]1CN([C@@H](C)CO)C(=O)c2cccc(NS(=O)(=O)c3cccs3)c2O[C@@H]1CN(C)C | i | 3 | 3 | 1.1
C[C@H](CO)N1C[C@H](C)[C@H](CN(C)Cc2ccc3c(c2)OCO3)Oc2c(NS(=O)(=O)c3ccc(F)cc3)cccc2C1=O | i | 0 | 3 | -1.6
O=C(C[C@@H]1CC[C@@H](NC(=O)c2ccncc2)[C@H](CO)O1)NCC1CCCCC1 | i | 2 | 0 | -1.1
O=C(N[C@H]1CC[C@@H](CCNS(=O)(=O)c2ccc(Cl)cc2)O[C@@H]1CO)c1ccccn1 | i | -1 | -6 | -0.7
CCCNC(=O)C[C@H]1CC[C@H]2[C@@H](COc3ccc(NC(=O)CCC)cc3C(=O)N2C)O1 | i | 3 | 7 | -0.5
CCCNC(=O)C[C@H]1CC[C@@H]2[C@@H](COc3ccc(NC(=O)Cc4ccccc4)cc3C(=O)N2C)O1 | i | -2 | -8 | -0.8

Five compounds already listed, sorted by molar mass, descending.
SMILES | FGF22 binding | rRNA inh HTS | rRNA inh HTS OD600 | rRNA inh HTS RFP
C[C@H](CO)N1C[C@H](C)[C@H](CN(C)Cc2ccc3c(c2)OCO3)Oc2c(NS(=O)(=O)c3ccc(F)cc3)cccc2C1=O | i | 0 | 3 | -1.6
COc1ccc(CN(C)C[C@H]2Oc3ccc(NS(=O)(=O)c4ccc(OC)cc4)cc3C(=O)N([C@H](C)CO)C[C@@H]2C)cc1 | i | 2 | 0 | -1.1
C[C@H]1CN([C@@H](C)CO)C(=O)c2cc(NC(=O)CCC(F)(F)F)ccc2O[C@@H]1CN(C)S(=O)(=O)c1ccc(F)cc1 | i | 2 | 1 | 0.0
CCCNC(=O)C[C@H]1CC[C@@H]2[C@@H](COc3ccc(NC(=O)Cc4ccccc4)cc3C(=O)N2C)O1 | i | -2 | -8 | -0.8
CCCNC(=O)N1CC[C@@H]2[C@H]1c1cc(-c3ccccc3)ccc1N(C)[C@H]2CO | i | -8 | -22 | 8.4

3 records drawn at random from the list so far, as already listed:
SMILES | FGF22 binding | rRNA inh HTS | rRNA inh HTS OD600 | rRNA inh HTS RFP
C[C@H]1CN([C@@H](C)CO)C(=O)c2cc(NC(=O)CCC(F)(F)F)ccc2O[C@@H]1CN(C)S(=O)(=O)c1ccc(F)cc1 | i | 2 | 1 | 0.0
NCC[C@@H]1CC[C@@H](NC(=O)C2CCCCC2)[C@@H](CO)O1 | i | 2 | 10 | -4.3
O=C(N[C@H]1CC[C@@H](CCNS(=O)(=O)c2ccc(Cl)cc2)O[C@@H]1CO)c1ccccn1 | i | -1 | -6 | -0.7

An excerpt. The share of hits here may be higher or lower than overall.
